Arbovirus inh: antivirals against arbovirus infection, primary screen, cell-based, full library, 10K replicate subset; AID 1251, 2008; hit rate 0.37% among 200,000; inhibition, % at 10 µM; arbovirus infection cell-based antiviral screen;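 active = inhibition from about 30%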;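 also: bluetongue infection of BSR cells; cell survival read as ATP light after 72 h; 0% = infected wells without compound and 100% = uninfected wells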
RecA intein inh: Mtb RecA intein splicing inhibitors, primary screen, biochemical, fluorescence, HTS | inhibition, %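 (about 9 µM by stock and volumes)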 | Protein RecA (Mycobacterium tuberculosis (strain ATCC 25618 / H37Rv)), P9WHJ3 | AID 2221, 2009 | hit rate 0.75% among 290,000 | cell-free RecA intein splicing; in the data active = inhibition above about 30%; inconclusive = no clear call, values can overlap the other calls;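 also: 0% = vehicle wells and 100% = reference inhibitor control wells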
Target sequence (P9WHJ3 whole entry, looked up): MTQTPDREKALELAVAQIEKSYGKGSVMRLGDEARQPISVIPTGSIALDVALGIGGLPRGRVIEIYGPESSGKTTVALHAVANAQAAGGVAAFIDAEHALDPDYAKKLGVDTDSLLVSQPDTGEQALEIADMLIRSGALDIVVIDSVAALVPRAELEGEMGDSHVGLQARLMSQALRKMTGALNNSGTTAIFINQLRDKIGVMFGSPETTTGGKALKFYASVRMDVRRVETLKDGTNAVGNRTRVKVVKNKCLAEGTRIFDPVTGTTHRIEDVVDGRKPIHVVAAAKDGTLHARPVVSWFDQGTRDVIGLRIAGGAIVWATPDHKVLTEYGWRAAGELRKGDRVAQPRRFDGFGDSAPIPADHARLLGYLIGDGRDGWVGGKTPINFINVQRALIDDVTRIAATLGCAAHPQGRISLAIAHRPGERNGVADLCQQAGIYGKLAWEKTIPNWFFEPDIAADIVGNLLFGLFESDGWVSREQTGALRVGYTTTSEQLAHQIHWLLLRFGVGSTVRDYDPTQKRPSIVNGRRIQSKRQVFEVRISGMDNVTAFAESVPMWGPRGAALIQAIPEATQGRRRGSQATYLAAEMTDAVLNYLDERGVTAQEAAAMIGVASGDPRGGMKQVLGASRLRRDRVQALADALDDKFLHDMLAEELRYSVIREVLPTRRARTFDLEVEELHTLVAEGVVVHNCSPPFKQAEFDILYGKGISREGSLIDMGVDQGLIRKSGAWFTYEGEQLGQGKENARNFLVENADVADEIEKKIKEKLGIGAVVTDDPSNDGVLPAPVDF
Mtb betalactam: beta-lactam sensitization of Mtb H37Rv, H37Rv. M. tuberculosis H37Rv growth with meropenem, percent inhibition; hits of this screen are not shown here. inhibition, % at 25 µM. hit rate 0.27% among 330,000;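 active = about 74% or more and at least 40 points above the plate without the antibiotic, then above 30% in a dose series; inconclusive = first-round hits that could not be retested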;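 also: growth measured after seven days incubation then overnight dye step; 0% = bacteria only wells and 100% = bacteria with antibiotic; twin plates without the antibiotic show which effects depend on it; some results filed as inactive read as strong as hits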
Mtb H37Rv: M. tuberculosis H37Rv growth inhibitors, H37Rv strain (AID 1626) | M. tuberculosis H37Rv growth inhibition; higher % means a stronger effect | inhibition, % at 10 µM, or IC50 in µM where a hit was titrated | hit rate 0.95% among 220,000;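 active = confirmed in a dose series; inconclusive = inhibition above 80% but not taken into the dose series; inactive = below 80% or under 30% at every dose of the series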;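 also: bacteria incubated seven days before Alamar blue readout; 0% = bacteria only wells and 100% = bacteria with antibiotic wells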
YopH inh: YopH tyrosine phosphatase inhibitors, primary screen, biochemical, fluorescence Ex485/Em525. YopH tyrosine phosphatase [Yersinia enterocolitica]. hit rate 0.16% among 140,000. inhibition, %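 (about 10 µM by stock and volumes)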. AID 898, 2007;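 active = inhibition of 50% or more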;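 also: controls were vehicle for no effect and minimum signal wells for full effect; inactives centre near -20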
Arbovirus inh repeat: also measured in Arbovirus inh; calls as there; inhibition, %; measured here: 10K subset replicate screen; many hits read low in the repeat;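 first of two repeat runs on a subset; 0% = infected and 100% = uninfected wells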
Numbers without * were called inactive; ? = inconclusive; / = not tested or not shown.

SMILES | Arbovirus inh | RecA intein inh | Mtb betalactam | Mtb H37Rv | YopH inh | others
N#Cc1ccsc1NC(=O)COC(=O)CCCSc1nc2ccccc2s1 | 4 | 5.7 | -17 | -5% | -13
Cc1cc(C)c[n+](-c2[nH]c(=O)sc2/C=N/N=C(\[O-])c2cccnc2)c1 | / | 2.7 | 4 | / | /
Cc1ccc(C)c(N2C(=O)CC(Cc3ccccc3)C2=O)c1 (stereo not given) | / | -1.5 | -1 | / | /
COCCC(=O)N1CCCC(C(=O)c2ccc(C(F)(F)F)cc2)C1 (stereo not given) | / | 0.8 | 5 | / | /
COc1ccccc1Oc1ccc(N2CC(C(=O)OCC(=O)c3ccccc3)CC2=O)cc1 (stereo not given) | / | 2.6 | 71 | / | /
COc1ccc(OC)c(NC(=O)CCC(=O)Nc2nnc(C(F)(F)F)s2)c1 | 11 | 0.9 | -3 | 2% | -40
O=C1CN(C(=O)CSc2nc(-c3ccccc3)cs2)c2ccccc2N1 | -1 | 1.4 | -4 | 2% | -7
CC1CCCC(NC(=O)COC(=O)COc2ccc(Cl)cc2)C1C (stereo not given) | -3 | / | -4 | 0% | -7
Cc1ccc(S(=O)(=O)/C(C#N)=C/c2c(N3CCOCC3)nc3ccccn3c2=O)cc1 | -3 | 1.9 | / | / | -24
CC(NC(=O)COc1ccc(Br)cc1)C(=O)O (stereo not given) | 1 | -4.3 | 0 | -1% | -33
COc1cccc(OC)c1C(=O)NC(=S)Nc1ccc2oc(=O)ccc2c1 | -9 | -2.4 | 0 | -5% | -28
Cc1ccc(S(=O)(=O)NCC(=O)OCC(=O)c2cccs2)cc1 | -4 | -0.4 | -8 | 4% | -25
CN(C)c1ccncc1C(=O)Nc1ccc(F)cc1F | / | -1.6 | 1 | -1% | /
CC1(C)Cc2c(sc3c2c(=N)n(Cc2ccco2)c(=O)n3Cc2ccccc2)CO1 | -8 | 20 | 10 | 17% | -26
CCSc1nnc(SCC(=O)NNC(=O)c2ccccc2F)s1 | / | -2.5 | 76 | / | /
C/C(=C\COc1cc(=O)[nH]c2ccccc12)CCC(O)C(C)(C)O (stereo not given) | 3 | -1.0 | -4 | -7% | /
COc1cc(CNc2nc3ccccc3n2C)cc(OC)c1OC | -7 | 0.3 | -2 | -7% | -23
O=C(CSc1nc2ccccc2n1S(=O)(=O)c1ccccc1)N1CCCCC1 | 1 | -3.6 | -5 | 0% | -65
Cc1cccc(NS(=O)(=O)c2ccc(Oc3ccccc3)cc2)n1 | 2 | 6.6 | -1 | -1% | -34
O=S(=O)(NC1CCCCCCC1)c1cccs1 | 8 | 8.0 | 2 | 3% | -7
CC(NC(=O)c1ccc(CS(C)(=O)=O)cc1)c1ccc(-c2ccccc2)cc1 (stereo not given) | / | -1.8 | 2 | / | /
Cc1ccc(S(=O)(=O)N2CCCCC2)cc1NC(=O)COC(=O)C1=COCCO1 | 1 | 0.5 | -2 | -1% | /
O=C1CN=C(Nc2ccccc2)N1Cc1cccs1 | 4 | 1.4 | -5 | -5% | -123
Cc1nn(C2CCS(=O)(=O)C2)c(Cl)c1/C=C/C(=O)OCC(=O)Nc1ccccc1[N+](=O)[O-] (stereo not given) | -3 | -1.8 | 3 | 5% | /
COc1cccc(OC)c1C(=O)N1CCN(C(=O)c2ccc(-c3ccccc3)cc2)CC1 | / | -0.8 | -5 | / | /
CC(=O)c1ccccc1NC(=O)COC(=O)CCCN1C(=O)c2cccc3cccc(c23)C1=O | -2 | -2.5 | -3 | 1% | -23
Cc1cc(-c2cc(C(=O)NC3CCCC3)on2)nc(NCC2CC2)n1 | / | -1.0 | -5 | -10% | /
CC1=CC(=C2C(=O)NC(=O)NC2=O)C=C(C(F)(F)F)N1Cc1ccccc1 | -24 | 3.0 | 3 | 2% | /
COc1ccc(NC(=S)Nc2cccc(C(F)(F)F)c2)c(C)c1 | 19 | 1.3 | 7 | 0% | /
Cc1ccc(-c2nc3ccccc3[nH]2)s1 | -11 | 3.7 | -9 | -5% | -31
COc1ccc(C(=O)Nc2ccccc2SCc2cc(=O)n3nc(C)sc3n2)cc1OC | / | 1.6 | -2 | / | /
O=C(NCc1ccc(C(F)(F)F)cc1)C12CN(Cc3ccccc3)CC1C(c1cccc([N+](=O)[O-])c1)=NO2 (stereo not given) | 28 | 14 | 3 | 3% | 1
Cc1[nH]c(C)c(C(=O)O)c1CNC1CCCCC1C (stereo not given) | 0 | / | / | -3% | -32
COc1ccc(S(=O)(=O)CCC(=O)N2CCN(c3ccc([N+](=O)[O-])cc3)CC2)cc1 | / | 2.4 | 9 | / | /
O=C(NC(=S)N1CCCc2ccccc21)c1ccc([N+](=O)[O-])cc1 | 0 | -0.4 | 10 | 6% | -36
C/C(=N\NC(=O)c1ccccc1O)c1c(O)cc(C)oc1=O | -3 | -3.3 | 74 | -1% | -26

Arranged by formula weight (ascending): part of the list above
SMILES | Arbovirus inh | RecA intein inh | Mtb betalactam | Mtb H37Rv | YopH inh | others
COc1ccc(NC(=S)Nc2cccc(C(F)(F)F)c2)c(C)c1 | 19 | 1.3 | 7 | 0% | /
Cc1cc(-c2cc(C(=O)NC3CCCC3)on2)nc(NCC2CC2)n1 | / | -1.0 | -5 | -10% | /
CC1=CC(=C2C(=O)NC(=O)NC2=O)C=C(C(F)(F)F)N1Cc1ccccc1 | -24 | 3.0 | 3 | 2% | /
COc1cccc(OC)c1C(=O)N1CCN(C(=O)c2ccc(-c3ccccc3)cc2)CC1 | / | -0.8 | -5 | / | /
COc1ccc(S(=O)(=O)CCC(=O)N2CCN(c3ccc([N+](=O)[O-])cc3)CC2)cc1 | / | 2.4 | 9 | / | /
CC(=O)c1ccccc1NC(=O)COC(=O)CCCN1C(=O)c2cccc3cccc(c23)C1=O | -2 | -2.5 | -3 | 1% | -23
COc1ccc(C(=O)Nc2ccccc2SCc2cc(=O)n3nc(C)sc3n2)cc1OC | / | 1.6 | -2 | / | /

Going on with the list:
SMILES | Arbovirus inh | RecA intein inh | Mtb betalactam | Mtb H37Rv | YopH inh | others
O=C(NNc1nc2ccc(Cl)cc2s1)c1cc(-c2cccs2)nc2ccccc12 | -28 | -1.7 | 9 | / | -32
O=C(NC(Cc1c[nH]c2ccccc12)c1nnc2n1CCCCC2)c1ccccc1 (stereo not given) | 5 | 0.1 | -8 | -13% | -22
COC(=O)C1=C(N)OC2=C(C(=O)CC(C)(C)C2)C1c1cccs1 (stereo not given) | -3 | 0.8 | 5 | -5% | -13
Cc1cc(C)cc(COn2ccnc2)c1 | 8 | 4.1 | 12 | 1% | -2
CCCCc1ccc(NC(=S)N2CCN(C(=O)OCC)CC2)cc1 | / | -0.8 | 10 | / | /
Cc1ccc(Cn2nnc3c(=O)[nH]c(C4CCN(S(=O)(=O)c5ccc(C)cc5)CC4)nc32)cc1 | -34 | 4.1 | 89 | 19% | 1
CCOC(=O)C1CCCN(CCC(=O)Nc2cccc(F)c2)C1 (stereo not given) | 4 | 1.5 | 2 | -10% | 7
O=C(CN(C(=O)CSc1nc2ccccc2o1)c1cccc(F)c1)NC1CCCCC1 | 1 | -0.9 | 5 | 0% | -51
COc1cc2cc3c(N)c(C(=O)Nc4sc(C)c(C)c4C#N)sc3nc2cc1OC | -13 | -4.3 | 2 | 1% | -2
CCC1Oc2ccccc2N(Cc2ccccc2C)C1=O (stereo not given) | -9 | / | 9 | 7% | -9
O=C(NC(=S)Nc1ccccc1N1CCCC1)c1ccc(F)cc1 | 9 | 7.1 | -1 | 18% | /
O=C(NCCOc1ccccc1)C1CCC(=O)N(Cc2ccc(Cl)cc2)C1 (stereo not given) | / | -0.4 | -14 | / | /
OCCC1CN(CCCc2ccccc2)CCN1Cc1ccccc1 (stereo not given) | / | 0.3 | -1 | -6% | /
COc1ccc(CN2CCN(C(=O)Cn3nc(C)n4cccc4c3=O)CC2)c(OC)c1OC | / | -0.1 | -1 | / | /
Cc1ccc(C(=O)NCCOC23CC4CC(CC(C4)C2)C3)cc1 | 1 | 1.2 | 7 | 3% | -10
Cc1ccccc1S(=O)c1ccccc1C(=O)O (stereo not given) | / | 0.3 | -4 | -12% | /
CCOc1ccccc1C(=O)N[C@H](C(=O)Nc1nc2c(s1)CCCC2)C(C)C | -11 | 10 | 87 | 37% | 10
Cn1nc(C(=O)Nc2ccc(Cl)cc2)cc1C(=O)Nc1ccc(Cl)cc1 | / | -0.9 | 2 | / | /
c1ccc(Cn2nnc3c(N4CCOCC4)ncnc32)cc1 | -1 | 0.4 | -4 | -1% | -15 | Arbovirus inh repeat=0
CCOC(=O)C1=NN(c2cccc(C)c2)C2(S1)SC(C(C)=O)=C(C)N2c1ccccc1 (stereo not given) | -6 | -0.1 | 0 | -17% | -21
COC(=O)c1c(NC(C)=O)csc1C | / | 1.0 | -6 | -12% | /
Cc1oc(-c2ccc(Cl)cc2)nc1CS(=O)CC(=O)NCc1ccco1 (stereo not given) | / | -1.6 | 3 | / | /
CCOC(=O)c1oc2cccc(O)c2c1CN(Cc1ccccc1)C(C)=O | -3 | 3.2 | -16 | -10% | -39
Cc1cc(C)nc(SCC(=O)O)n1 | 8 | 2.3 | -19 | 2% | 1
Cc1ccccc1OCc1nnc(SCc2nc3ccccc3c(=O)[nH]2)n1C | -2 | / | -2 | -6% | /
O=C1c2ccccc2C(=O)N1CC1c2ccccc2CCN1C(=O)CN1CCOCC1 (stereo not given) | 4 | -3.2 | -7 | 2% | /
CCC(=O)Nc1cc(C(=O)OCc2ccc(C(=O)Oc3ccccc3)cc2)ccc1C | -2 | -0.4 | -1 | 2% | -15
COc1ccccc1-c1cnn2c(NCc3ccccc3)cc(C)nc12 | / | -2.4 | 0 | / | /
C=CCn1c(SCC(=O)NNC(=S)Nc2ccccc2)nnc1-c1ccccc1 | / | 2.6 | -3 | 12% | /
CCOc1ccc(N(CC(=O)N/N=C(\C)c2cccc(NC(C)=O)c2)S(=O)(=O)c2ccccc2)cc1 | / | -2.0 | 6 | / | /
CCOC(=O)/C=C1\SCC(=O)N1CC(=O)N1CCOCC1 | -2 | -1.5 | -6 | -11% | /
CN(Cc1cn(-c2ccccc2)nc1-c1cc2ccccc2o1)C(=O)CCC(=O)O | 2 | 2.1 | 4 | 3% | /
CCOc1ccc2[nH]c(C)c(CN3CCOCC3)c(=O)c2c1 | 2 | 3.2 | -3 | 1% | -57 | Arbovirus inh repeat=5
C/C(N)=C(/C#N)C(=O)COC(=O)c1ccc(C#N)cc1 | -1 | 2.8 | 0 | -7% | /
CCOc1ccc(NC(=O)CCC(=O)NNC(=O)c2ccccc2Cl)cc1 | / | -1.7 | 97 | / | /
Cc1ccc(NS(=O)(=O)c2ccc(C(=O)N3CCN(c4ncccn4)CC3)cc2)cc1 | 14 | 0.8 | -2 | 7% | /
COc1ccc(C(=O)Nc2nc(-c3ccccc3)c(C(C)=O)s2)c(OC)c1 | 8 | 5.0 | 5 | -6% | /
O=C(NCC1CCCO1)C(c1cccs1)N(Cc1cccs1)C(=O)c1ccc(-c2ccccc2)[nH]1 (stereo not given) | -27 | 22 | -5 | 3% | -19
COc1ccc(N2CCN(C(=O)c3cccnc3)CC2)c([N+](=O)[O-])c1 | 1 | -2.7 | -6 | 1% | /
O=C(CC1SC(N2CCOCC2)=NC1=O)Nc1cc([N+](=O)[O-])ccc1Cl (stereo not given) | 5 | -2.1 | -4 | 6% | /
CC(O)c1nc2ccccc2n1Cc1nnc(-c2ccc(Cl)cc2)o1 (stereo not given) | 14 | -1.4 | ? | 2% | -2
O=C(NC1CC1)C1CCN(c2ccc(S(=O)(=O)N3CCOCC3)cc2)CC1 | 10 | 2.6 | 9 | -10% | -17
CCCCn1c(N)c(N(CC)C(=O)c2cccc(F)c2)c(=O)[nH]c1=O | / | -4.0 | 16 | / | /
CCCCC(CC)CNC(=O)CCS(=O)(=O)c1cccc2nonc12 (stereo not given) | -2 | / | 28 | / | -5 | Arbovirus inh repeat=3

Fetched by structure from the list above:
SMILES | Arbovirus inh | RecA intein inh | Mtb betalactam | Mtb H37Rv | YopH inh | others
O=C(CC1SC(N2CCOCC2)=NC1=O)Nc1cc([N+](=O)[O-])ccc1Cl (stereo not given) | 5 | -2.1 | -4 | 6% | /
CCCCC(CC)CNC(=O)CCS(=O)(=O)c1cccc2nonc12 (stereo not given) | -2 | / | 28 | / | -5 | Arbovirus inh repeat=3

Bioassay records as filed in PubChem.

An excerpt, so the mix of outcomes need not match the whole.
